# PrPC surface inh: cell surface PrPC inhibition, primary TR-FRET screen | 370,000 compounds, 0.43% hits | inhibition, % at 13.8 µM | AID 720596 | TR-FRET read-out | P04156; in the data active = inhibition above about 24%; note: 0% = median of the test wells and 100% = reference compound wells
# BoNT-A LC inh2: blocks Botulinum neurotoxin A light chain protease | multiplex microsphere protease substrate cleavage, flow cytometry | inhibition, % at 10 µM | 360,000 compounds, 0.17% hits; note: plate controls were buffer without enzyme for full effect and enzyme alone for no effect
# DUSP3 inh: blocks human VHR1 dual specificity phosphatase; P51452; recombinant VHR phosphatase, pNPP absorbance; inhibition, % at 13.3 µM; 290,000 compounds, 0.52% hits; in the data active = inhibition above about 50%; note: some compounds called inactive have numbers as strong as hits
# Target sequence (P51452 whole entry, looked up): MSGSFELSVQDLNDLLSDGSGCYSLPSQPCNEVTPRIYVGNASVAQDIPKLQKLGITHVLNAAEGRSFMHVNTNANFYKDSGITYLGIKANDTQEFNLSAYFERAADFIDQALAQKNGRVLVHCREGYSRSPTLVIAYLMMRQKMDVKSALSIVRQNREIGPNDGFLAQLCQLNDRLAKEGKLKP
# BoNT-F LC inh: BoNT F light chain protease inhibition | inhibition, % at 10 µM | 360,000 compounds, 0.22% hits | AID 588497 | Multiplex microsphere protease cleavage assay, flow cytometry; in the data active = inhibition above about 35%, passing the limit was not always enough; inconclusive = no clear call, values can overlap the other calls; note: plate controls were buffer without enzyme for full effect and enzyme alone for no effect
# CCHF vOTU inh: CCHFV vOTU protease inhibition; inhibition, % at 11.5 µM; 370,000 compounds, 0.55% hits; Pep-AMC fluorescence; AID 651958; in the data active = inhibition above about 30%; note: 0% = vehicle wells with enzyme and 100% = no enzyme wells
# Anthrax LF prot: anthrax lethal factor protease inhibition. P15917. multiplex microsphere protease cleavage assay, LF. inhibition, % at 10 µM. 360,000 compounds, 0.12% hits. AID 588501; note: plate controls were buffer without enzyme for full effect and enzyme alone for no effect
# 3CLpro inhibitor: SARS-CoV 3CLpro protease inhibition. inhibition, % at 6 µM. AID 1706. 290,000 compounds, 0.14% hits. P0C6X7. recombinant SARS-CoV 3CLpro, quenched FRET peptide cleavage; in the data active = inhibition above about 12%
# PriA SSB inh: blocks PriA binding to SSB C-terminal tail. 430,000 compounds, 0.6% hits. AID 1272365. AlphaScreen SSBct-PriA binding, biotinylated peptide. inhibition, % at 33 µM; in the data active = inhibition mostly above about 37%, no sharp cut-off; inactive = mostly below about 20%;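 note: plate controls were negative control peptide for no effect and reference peptide for full effect; strong numbers were not always called active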
# Rv3671c inh: inhibitors of M. tuberculosis serine protease Rv3671c; P9WHR9; inhibition, % at 5.96 µM; 320,000 compounds, 0.048% hits; AID 2606; in the data active = inhibition above about 38%;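 note: extracellular domain of Rv3671c used as enzyme; 0% = enzyme with DMSO and 100% = no enzyme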
# Target sequence (P9WHR9 whole entry, looked up, the tested form may be a part): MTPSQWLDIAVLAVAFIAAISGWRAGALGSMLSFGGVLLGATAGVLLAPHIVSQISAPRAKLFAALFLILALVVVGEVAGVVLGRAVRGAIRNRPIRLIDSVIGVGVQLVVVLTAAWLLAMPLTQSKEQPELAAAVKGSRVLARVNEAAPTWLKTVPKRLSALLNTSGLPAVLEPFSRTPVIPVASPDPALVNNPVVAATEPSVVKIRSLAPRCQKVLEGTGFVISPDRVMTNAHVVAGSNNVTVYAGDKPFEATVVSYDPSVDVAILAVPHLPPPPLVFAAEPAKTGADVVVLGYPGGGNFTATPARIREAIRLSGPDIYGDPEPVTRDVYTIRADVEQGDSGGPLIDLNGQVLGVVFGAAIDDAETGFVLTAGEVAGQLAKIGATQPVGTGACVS
# * = called active by the depositor; ? = inconclusive; / = not tested or not shown; & = joins results of further samples. Cut-off read from the data, not from the text of the source, unless noted: active = inhibition above about 30%; inconclusive = no clear call, values can overlap the other calls; inactive = below that. Only part of the results is shown; the hit share may differ from the screen's.
no.	canonical_smiles	PrPC surface inh	BoNT-A LC inh2	DUSP3 inh	BoNT-F LC inh	CCHF vOTU inh	Anthrax LF prot	3CLpro inhibitor	PriA SSB inh	Rv3671c inh
1	O=C(O)COc1ccc(C=NNc2nc(Nc3ccccc3)nc(N3CCCCC3)n2)cc1	/	/	/	/	/	/	/	-1	/
2	O=C(O)c1cccc(-n2cccc2/C=C2/SC(=O)N(CC(=O)N3CCCC3)C2=O)c1	-20	1.6	-20	-2	7	-1	-4	6	-1
3	CCOC(=O)/C(=C\c1ccc([N+](=O)[O-])o1)NC(=O)c1ccccc1	/	0.2	23	0	/	0	-2	8	-4
4	CCC1(c2ccc(F)cc2)NC(=O)N(CC(=O)Nc2cc(S(=O)(=O)N(C)C)ccc2Cl)C1=O (centres undefined)	6	0.6	-3	-1	-5	-3	-3	2	-5
5	C=CCn1c(C(CC)CC(C)(C)O)n[nH]c1=S (centres undefined)	-6	-1.1	0	-7	-6	-2	-3	-7	2
6	Cc1sc2c(c1C)CN(C(C)(C)C)CN2C(=O)c1ccccc1	-1	0.3	16	-6	5	-1	1	-22	-11
7	O=C1CC(N2CCN(c3nc4ccccc4s3)CC2)C(=O)N1c1cccc(F)c1 (centres undefined)	-5	-1.8	4	-1	1	-8	-1	-9	1
8	Cc1cccc(-c2cccc(NC(=O)C3CCCN(Cc4cccnc4)C3)c2)c1 (centres undefined)	12	-2.7	7	-16	0	-2	-3	3	/
9	COc1ccc(NC(=O)CCCNC(=O)Cn2cnc3sc(C)c(C)c3c2=O)cc1Cl	-9	-3.8	19	13	12	6	2	-12	-21
10	C=CCS(=O)(=O)N1CCC(CCOc2ccccc2)(C(=O)OCC)CC1	14	-0.1	3	1	-8	-1	-2	-3	8
11	CC(C)C(=O)NC(Nc1cc(C(F)(F)F)ccc1Cl)C(Cl)(Cl)Cl (centres undefined)	11	1.1	5	9	29	0	-6	-7	-6
12	CCOc1ccc(N(CC(=O)NCCOc2ccc(C)cc2)S(=O)(=O)c2ccccc2)cc1	-2	-2.1	-9	-5	21	-2	6	-11	-37
13	CCC(C)(C)NC(=O)C(c1ccc(C)o1)N(Cc1cccs1)C(=O)Cn1nnc2ccccc21 (centres undefined)	-2	-1.3	-3	8	2	0	-5	-15	-15
14	O=C(O/N=C\c1ccc(N2CCCCC2)c([N+](=O)[O-])c1)c1cccc(Cl)c1	0	0.3	-2	1	7	-2	1	/	-4
15	O=[n+]1cc(-c2ccccc2)n([O-])c2c1CCCCC2	-4	0.1	8	-1	-1	-1	-3	-8	-3
16	CCCCOc1ccc(CC2C(=O)N(C)C(=O)N(C)C2=O)cc1	2	9.7	-15	16	7	1	3	-4	-6
17	C/C(=N/OCO/N=C(/C)c1ccc(F)cc1)c1ccc(F)cc1	7	-0.3	28	-2	-4	-5	0	/	-5
18	CCOC(=O)N1CCN(C(=O)c2ccc3c(=O)n(-c4ccc(F)cc4)c(=S)[nH]c3c2)CC1	-1	1.1	8	0	6	2	-2	-3	-10
19	O=C(O)CSCC(=O)NCc1ccc(Cl)cc1Cl	0	0.4	8	-2	-6	0	-9	1	-1
20	COC(=O)c1ccc(C23CC4(C2)[C@H](CN(Cc2cccnc2)[C@@H]4c2ccccc2)C3c2ccc(Cl)nc2)cc1 (some centres undefined)	1	-0.4	0	-3	12	0	/	3	-17
21	O=C(Nc1nc2cc3c(cc2s1)OCCO3)c1ccncc1	15	2.9	17	-50	-4	-16	-4	3	-4
22	CCOc1ccc(NC(=O)c2cc(C3CC3)nc3c2cnn3C(C)C)cc1OC	6	0.4	/	-13	6	-10	/	14	-3
23	CC1CCCC(C)N1C(=S)NCc1ccco1 (centres undefined)	10	?	12	?	-3	0	4	10	12
24	O=C1/C(=C\c2ccc(C(F)(F)F)cc2)CSc2sccc21	8	-2.8	32	?	-7	4	0	-6	-1
25	CCOc1ccc(Cl)cc1C=NO	/	/	/	/	/	/	/	-24	/
26	CN1C(=O)C(N=Nc2ccccc2C(=O)O)N(C)C1=S (centres undefined)	-14	-0.1	18	-11	-6	-6	-6	6	-1
27	COc1ccc(/C=N/NC(=O)CO/N=C(\C)c2cccs2)cc1	-3	-0.4	16	1	10	-2	0	/	13
28	COCCNC(=O)C(c1ccncc1)N(Cc1ccccc1)C(=O)Cn1nnc2ccccc21 (centres undefined)	-3	-0.6	22	-5	-2	0	2	-15	4
29	Cc1ccc(S(=O)(=O)N2CCN(c3ncnc4ccccc34)CC2)cc1	7	0.3	/	-2	2	4	/	-7	-16
30	CCOC(=O)c1c(C)n(C)c2ccc(OC)c(NC(=O)CN3CCN(C(=O)c4ccco4)CC3)c12	-5	0.3	15	-2	10	-1	-2	-4	5
31	COc1ccccc1Nc1ccc(NS(=O)(=O)c2ccc(C(C)=O)cc2)cc1	-2	-2.0	27	?	0	-10	8	3	9
32	O=C(O)c1ccc(S(=O)(=O)N2CCC(NC(=O)C3CCCCC3)CC2)cc1	1	-0.8	28	11	6	-2	-6	0	5
33	N#Cc1nc(Cc2cccc3ccccc23)oc1N1CCN(c2ccccc2)CC1	9	-0.7	26	-2	-9	-5	-1	-8	4
34	Cc1cc(=O)[nH]c(N=C(N)Nc2ccc(Oc3ccccc3)cc2)n1	/	/	/	/	/	/	/	-17	/
35	O=C(CSCc1ccc([N+](=O)[O-])cc1)NN=C1CCCCCC1	-8	-0.1	14	-1	-5	-2	5	3	-2
36	CN=C(Nc1cc(C)nn1-c1ccccc1)c1ccccc1F	3	-1.5	11	-3	-9	-1	4	3	6
37	CCOc1cc(/C=N/n2cnnc2)ccc1OC(=O)c1cccc([N+](=O)[O-])c1	-7	0.1	23	-2	-4	-4	-3	/	5
38	NS(=O)(=O)c1ccc(NC(=O)c2ccccc2C(=O)N2CCCCC2)cc1	11	-1.3	8	4	-3	-2	-7	-4	-3
39	O=C(c1ccc(F)cc1)C1CCN(C(=O)c2ccccc2F)CC1	-1	1.6	-2	9	13	-1	1	-6	5
40	O=C(Cn1c2ccccc2c(=O)c2cc([N+](=O)[O-])ccc21)Nc1ccccc1Cl	-5	0.3	21	2	2	-1	2	-18	-42
41	CC(=O)Nc1ccc(S(=O)(=O)NC2(C(F)(F)F)C(=O)Nc3c2c(=O)[nH]c(=O)n3Cc2ccco2)cc1 (centres undefined)	4	-0.8	1	1	5	-7	0	-1	1
42	C=CCC(C#N)(c1ccc(OC)c(OC)c1)c1cnccn1 (centres undefined)	0	0.4	/	6	7	5	/	-14	-3
43	CCC(=O)NC(=S)Nc1ccc(NC(=O)c2ccco2)c(Cl)c1	-2	-0.5	11	-8	-3	-9	1	-19	-4
44	COc1ccccc1NS(=O)(=O)c1cc(C(=O)N2CCCCCCC2)ccc1C	-4	/	/	/	1	/	/	3	1
45	C/C(CC1CC2=C(CC1(C)C)C(C)(C)CCC2)=N\NC(N)=S (centres undefined)	-5	-1.9	12	-11	11	-2	-3	/	-2

# In the list so far, these have an aryl methoxy group.
no.	canonical_smiles	PrPC surface inh	BoNT-A LC inh2	DUSP3 inh	BoNT-F LC inh	CCHF vOTU inh	Anthrax LF prot	3CLpro inhibitor	PriA SSB inh	Rv3671c inh
9	COc1ccc(NC(=O)CCCNC(=O)Cn2cnc3sc(C)c(C)c3c2=O)cc1Cl	-9	-3.8	19	13	12	6	2	-12	-21
22	CCOc1ccc(NC(=O)c2cc(C3CC3)nc3c2cnn3C(C)C)cc1OC	6	0.4	/	-13	6	-10	/	14	-3
27	COc1ccc(/C=N/NC(=O)CO/N=C(\C)c2cccs2)cc1	-3	-0.4	16	1	10	-2	0	/	13
30	CCOC(=O)c1c(C)n(C)c2ccc(OC)c(NC(=O)CN3CCN(C(=O)c4ccco4)CC3)c12	-5	0.3	15	-2	10	-1	-2	-4	5
31	COc1ccccc1Nc1ccc(NS(=O)(=O)c2ccc(C(C)=O)cc2)cc1	-2	-2.0	27	?	0	-10	8	3	9
42	C=CCC(C#N)(c1ccc(OC)c(OC)c1)c1cnccn1 (centres undefined)	0	0.4	/	6	7	5	/	-14	-3
44	COc1ccccc1NS(=O)(=O)c1cc(C(=O)N2CCCCCCC2)ccc1C	-4	/	/	/	1	/	/	3	1

# The listing continues:
no.	canonical_smiles	PrPC surface inh	BoNT-A LC inh2	DUSP3 inh	BoNT-F LC inh	CCHF vOTU inh	Anthrax LF prot	3CLpro inhibitor	PriA SSB inh	Rv3671c inh
46	Oc1ccc2ccccc2c1CNc1cnc2ccccc2c1	3	0.6	22	-6	-44	-3	3	-2	-1
47	O=C(N/N=C/c1ccc(OC(=O)c2ccccc2Br)cc1)c1ccccn1	3	-0.1	5	-12	-6	-5	6	/	4
48	CCOc1ccccc1NC(=S)N(Cc1cc2ccc(C)cc2[nH]c1=O)CC1CCCN1CC (centres undefined)	0	1.8	3	5	7	-3	1	10	-3
49	O=C(O)C1C2C=CC(C2)C1C(=O)NCCC1=CCCCC1 (centres undefined)	-2	1.0	22	8	-12	2	5	-9	0
50	CN(NS(=O)(=O)c1ccc(Cl)cc1)c1ncc(C(F)(F)F)cc1Cl	2	-0.5	20	-3	8	0	6	-6	-3
51	Cc1nc2ccc(Cl)cc2n1C	3	0.1	/	8	28	-5	/	/	/
52	CCCCOC(=O)C1=C(C)Nc2nnnn2C1c1ccc(OC)c(OC)c1OC (centres undefined)	-2	1.0	27	8	7	-4	6	10	-7
53	O=C(CN1C(=O)C2C3C=CC(C3)C2C1=O)Nc1nncs1 (centres undefined)	6	-0.5	2	2	2	-1	0	-21	3
54	Cc1cccc(CS(=O)(=O)Cc2ccc(C(=O)NC3CCCCCC3)o2)c1	-3	-0.1	4	1	4	3	-5	-10	8
55	CC(=O)CCc1oc2ccc([N+](=O)[O-])cc2c1-c1ccc(C)o1	5	1.1	25	-3	11	1	1	-6	5
56	CC1CCCC(C)N1CCCNC(=O)c1nn(C)c2c1CSc1ccccc1-2 (centres undefined)	-13	1.4	7	4	9	3	-2	-5	4
57	O=C(N/N=C/c1ccc2c(c1)OCO2)c1ccc(Br)o1	9	0.2	-12	-3	20	-1	2	/	0
58	O=C(NCC1CCN(Cc2cccc(Cl)c2)CC1)Nc1ccccc1Cl	-10	-1.6	5	-26	-9	2	-1	-10	/
59	Fc1cccc(CN2CCCCCCC2)c1	-3	0.9	17	6	-5	-1	0	-10	-4
60	COc1cc(C(=O)NC2CCN(C)CC2)ccc1Nc1ncc2c(n1)N(C1CCCCC1)CCC(=O)N2C	-11	-1.2	/	-12	19	-4	/	-5	/
61	COc1ccc(OCC(=O)Nc2cc(OC)cc(OC)c2)cc1	5	1.6	25	-5	13	0	3	-16	8
62	CCN(CCNC(=O)C1CCCN(c2ncnc3c2nc2n3CCCCC2)C1)Cc1ccccc1 (centres undefined)	-8	/	-13	/	3	/	-5	4	-1
63	CC12CCC(C(=O)N(CC(O)CN3CCCCC3)C1=O)C2(C)C (centres undefined)	-5	0.2	-11	7	-2	-1	-2	6&-8	9
64	CCOc1cc(C=NNC(=O)c2cccc(S(=O)(=O)N3CCCC3)c2)ccc1OCC(=O)N(C)C	/	/	/	/	/	/	/	-7	/
65	CC(C)CC(=O)NCc1ccc2[nH]c3c(c2c1)CCCC3	6	-0.3	16	-2	6	-6	5	-11	9
66	CCCC(C)NC(=O)c1cccc(Oc2ccccc2)c1 (centres undefined)	9	-0.7	-10	-2	4	-6	-1	-12	-1
67	Cc1cc(/C=N\NC(=O)COc2cccc3cccnc23)c(C)n1-c1ccccc1	-5	-0.7	2	-8	3	0	3	/	-8
68	COc1ccc(C(=O)Sc2nncc3ccccc23)cc1	7	-0.7	-5	-5	8	-1	6	-2	8
69	CCOC(=O)Nc1ccc(Cc2ccncc2)cc1	4	-1.0	11	3	3	1	7	-18	-3
70	Cc1ccc(-c2noc(-c3ccoc3C)n2)cc1	5	0.0	20	-4	-10	-1	4	-20	-2
71	CC(=NNC(=O)CCn1nc(C)cc1C)C(C)(C)C	/	/	/	/	/	/	/	-11	/
72	CCc1ccc(-n2cccc2/C=C2/C(=N)N3C(=NC2=O)SN=C3S(C)(=O)=O)cc1	2	0.0	2	2	19	-2	7	2	-23

# Screening results: PubChem, several laboratories
